Screening data: PubChem, ICCB-Longwood Screening Facility, Harvard Medical School
GIV-Gai inh = inhibitors of GIV peptide binding to Galpha-i3, primary screen, biochemical, fluorescence polarization, FITC-GIV GBA peptide, rat Galphai3 | 90 min; stronger effect = lower value; scaled: aluminum fluoride 0%, vehicle 100% | percent of control (FP), % (no concentration beside the values) | 210,000 compounds, 0.42% hits | AID 1224905, 2016;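 active = replicate mean at 85% of control or lower, very high polarization wells dropped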;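 note: wells of about 15 µL received 100 nL stock; the first replicate is given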
Target sequence (P08753 whole entry, looked up): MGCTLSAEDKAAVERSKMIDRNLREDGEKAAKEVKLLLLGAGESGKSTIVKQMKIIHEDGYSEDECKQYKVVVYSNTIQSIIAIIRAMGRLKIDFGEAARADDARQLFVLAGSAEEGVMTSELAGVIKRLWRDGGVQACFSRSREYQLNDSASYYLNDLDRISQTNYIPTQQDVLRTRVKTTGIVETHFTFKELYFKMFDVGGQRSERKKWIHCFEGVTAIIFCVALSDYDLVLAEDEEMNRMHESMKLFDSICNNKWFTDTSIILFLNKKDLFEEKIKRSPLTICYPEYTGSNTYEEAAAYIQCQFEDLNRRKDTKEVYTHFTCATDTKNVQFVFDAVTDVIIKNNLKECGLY
Sa growth inh = S. aureus growth inhibition at 42 and 30 °C, primary screen, LtaS inhibitor project, RN4220, two temperatures; AID 720641, 2013; relative growth, % (no concentration beside the values); OD600, 20 h, 42 °C; stronger effect = lower value; 170,000 compounds, 0.53% hits;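 active = growth at 42 °C up to 50% and 20 or more points under that at 30 °C, or under 10% at both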;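 note: 300 nL library stock went into each well; scaled to the means of positive and negative controls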
HCMV UL50-53 inh = inhibitors of HCMV UL50-UL53 interaction, biochemical, HTRF; inhibition, % (test concentration not listed); normalized percent inhibition; HCMV UL50-UL53 nuclear egress complex (human cytomegalovirus); AID 1918969, 2023; 190,000 compounds, 0.15% hits;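 active = both replicates at 50% or more, plus weaker picks with an unusually low signal ratio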;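 note: stock transfer was 100 nL into about 20 µL; 0% = negative control wells and 100% = wells with untagged competitor protein; inactives centre near -12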
Sa growth inh second temp = recorded beside Sa growth inh, whose call it bears; relative growth, %; measured here: growth at 30 °C;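 optical density after 20 h as mean of two plates; 100% = untreated growth and lower means inhibition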
Active calls of the source: *; . = not tested or not shown; & = joins results of further samples.

item | Molecule | GIV-Gai inh | Sa growth inh | Sa growth inh second temp | HCMV UL50-53 inh
1 | CCOc1ccc(C2C3=C(CC(c4ccccc4)CC3=O)Nc3ncnn32)cc1OC (stereo unspecified) | 101 | . | . | -25
2 | COc1ccc(OCC(=O)Nc2cccc3nsnc23)cc1 | 101 | . | . | -4
3 | Oc1ccccc1C=Nc1ccc2ncccc2c1 | 98 | 109 | 94 | -46
4 | Cc1cccc(NC(=S)NC(C)(C)C)c1 | 102&105 | 130&97 | 104&100 | -11&21
5 | O=C(Nc1sc2c(c1C(=O)Nc1ccccc1)CCCC2)c1ccccc1 | . | 102 | 100 | -8
6 | O=C(NC1CCCC1)c1cc(=O)[nH]c2ccc(S(=O)(=O)N3CCCC3)cc12 | 105 | 110 | 92 | .
7 | Cc1[nH]c(=O)[nH]c(=O)c1S(=O)(=O)N1CCCCC1C (stereo unspecified) | 98 | 95 | 86 | .
8 | CC1(C)CC(=O)C(C=NCC2CCN(C(=O)Nc3ccccc3)CC2)=C(O)C1 | 100 | 92 | 80 | -16
9 | Cc1cc(C)n(NC(=S)NC2CCCCC2)c(=O)c1C#N | 110 | 103 | 90 | -8
10 | O=C(CN1C(=O)C2CC=CCC2C1=O)OCc1cc(=O)n2c(n1)sc1ccccc12 (stereo unspecified) | . | 73 | 78 | -52
11 | CCCCc1c(O)nc(SCCC(=O)O)[nH]c1=O | 97 | 87 | 87 | .
12 | Cc1nn(C(=O)c2cccc([N+](=O)[O-])c2C)c(C)c1S(=O)(=O)N1CCCCCC1 | 101 | 97 | 94 | .
13 | CCOc1ccc2nc(N3CCN(C(=O)CS(=O)(=O)c4ccc(F)cc4)CC3)sc2c1 | 99 | 137 | 70 | .
14 | CCOc1ccc(C(=O)Nc2cccc(C(=O)OCc3cc(=O)n4cc(C)sc4n3)c2)cc1 | 97 | 90 | 90 | .
15 | CCOC(=O)c1cnc(Nc2ccc(C)cc2)nc1C(F)(F)F | 99 | 77 | 88 | -16
16 | CCc1ccc(-c2ncnn2-c2cccc(Cl)c2C)cc1 | 104 | 117 | 98 | .

Arranged by length of the SMILES (falling): part of the list above
item | Molecule | GIV-Gai inh | Sa growth inh | Sa growth inh second temp | HCMV UL50-53 inh
12 | Cc1nn(C(=O)c2cccc([N+](=O)[O-])c2C)c(C)c1S(=O)(=O)N1CCCCCC1 | 101 | 97 | 94 | .
14 | CCOc1ccc(C(=O)Nc2cccc(C(=O)OCc3cc(=O)n4cc(C)sc4n3)c2)cc1 | 97 | 90 | 90 | .
13 | CCOc1ccc2nc(N3CCN(C(=O)CS(=O)(=O)c4ccc(F)cc4)CC3)sc2c1 | 99 | 137 | 70 | .
8 | CC1(C)CC(=O)C(C=NCC2CCN(C(=O)Nc3ccccc3)CC2)=C(O)C1 | 100 | 92 | 80 | -16
7 | Cc1[nH]c(=O)[nH]c(=O)c1S(=O)(=O)N1CCCCC1C (stereo unspecified) | 98 | 95 | 86 | .
9 | Cc1cc(C)n(NC(=S)NC2CCCCC2)c(=O)c1C#N | 110 | 103 | 90 | -8
11 | CCCCc1c(O)nc(SCCC(=O)O)[nH]c1=O | 97 | 87 | 87 | .

The listing continues:
item | Molecule | GIV-Gai inh | Sa growth inh | Sa growth inh second temp | HCMV UL50-53 inh
17 | COc1ccc(C)cc1-n1c(N)c(C#N)c(C#N)c1-c1ccc(OC)c(OC)c1OC | . | 85 | 83 | -22
18 | Cc1nc(-c2ccccn2)nc(SCc2ccccc2)c1Cl | 100 | 19* | 43* | -10
19 | COc1ccc(-n2nc(C(=O)Nc3ccc(F)cc3Cl)c(=O)n(C)c2=O)cc1 | 97 | . | . | 4
20 | Cc1cc(Oc2cc(C#N)c(C#N)cc2N2CCOCC2)cc(C)c1Cl | 101 | 108 | 101 | 4
21 | Cc1ccc(NS(=O)(=O)c2ccc3c(c2)n(C)c(=O)n3C)cc1 | 101 | 97 | 88 | 0
22 | CC(C)OC(=O)c1cc2ccc(O)cc2oc1=O | 111 | 83 | 85 | -80
23 | NS(=O)(=O)c1ccc(CCn2ccn(CC(=O)NCCC3=CCCCC3)c(=O)c2=O)cc1 | 103 | 120 | 90 | .
24 | CCc1ccc(NC(=O)Cc2ccc(NC3=NC4CS(=O)(=O)CC4S3)cc2)cc1 (stereo unspecified) | 100 | 87 | 85 | -26
25 | Cc1cccc(C)c1OCC(=O)N=Nc1c(O)n(CN2CCN(C)CC2)c2ccc(Br)cc12 | 106 | 103 | 76 | -31
26 | O=C(OCC(=O)N1CCCC1=O)c1n[nH]c2ccccc12 | . | 89 | 95 | 12
27 | Cc1ccccc1NC(=O)C(=O)NCC1(c2ccccc2)CCCC1 | 99 | 90 | 86 | 0
28 | CNC(=O)C(Cc1ccccc1)N1C(=O)C2C3C=CC(C3)C2C1=O (stereo unspecified) | 107 | 103 | 93 | 6
29 | O=S1(=O)CCC(c2n[nH]c(=S)o2)C1 (stereo unspecified) | . | 112 | 90 | -13
30 | CC1=C(Oc2ccc(Cl)cc2)C(C)(O)N=C(C(F)(F)F)N1 (stereo unspecified) | 103 | 91 | 87 | 0
31 | Cn1c2c(c3ccccc31)C(C)(C)NC(C)(C)C2 | 107 | 95 | 81 | -19
32 | Cc1ccccc1N(CC(=O)Nc1ccc(S(=O)(=O)N2CCOCC2)cc1)S(=O)(=O)c1ccccc1 | 103 | . | . | -12
33 | Cc1cccc(/C=C2\Sc3ccc(C(=O)N4CCC(C)CC4)cc3N(C)C2=O)c1 | 101 | 76 | 38 | .
34 | CC(C)(C)c1cc(CCC(=O)O)cc(C(C)(C)C)c1O | 98 | 115 | 98 | -7
35 | NS(=O)(=O)c1ccc(NC(=O)COC(=O)Cc2ccccc2)cc1 | . | 82 | 96 | -36
36 | CC(C)=CCc1c(O)cc(O)c2c1OC(c1ccccc1)CC2=O (stereo unspecified) | 98 | 52 | 37 | -31
37 | CCOC(=O)C1SC(C)=NC1=O (stereo unspecified) | . | 69 | 90 | -8
38 | CC(=O)Nc1ccc(NC(=O)c2ncoc2-c2ccco2)cc1 | 105 | 88 | 86 | .
39 | COc1ccc2c(C)c(CCC(=O)NCCc3ccccc3OC)c(=O)oc2c1 | 97 | 91 | 82 | -35
40 | COc1ccc(-c2cc(-c3ccc(Cl)c(Cl)c3)nc(N)c2C#N)cc1OC | . | 115 | 80 | 29
41 | COc1cc(OC)c(NC(=O)N2CCC3(CC2)N=C(c2ccc(C)c(C)c2)C(=O)N3)cc1Cl | 101 | 108 | 79 | -4
42 | Cc1cccc(N2CCN(C(=O)c3ccc(Cn4c(=O)c5cccn5c5cccnc54)cc3)CC2C)c1 (stereo unspecified) | 106 | . | . | -10
43 | Cc1cc(-c2ccccc2)[nH]c(=O)c1S(C)(=O)=O | 104 | . | . | -16
44 | CCOC(=O)C1CCN(C(=O)C(C)n2ncn3cccc3c2=O)CC1 (stereo unspecified) | 100 | 88 | 88 | -16
45 | NS(=O)(=O)c1ccc(NC=C2C(=O)OC3(CCCCC3)OC2=O)cc1 | 101 | 90 | 79 | 4
46 | O=C(CSc1cccc2cccnc12)Nc1cccc(C(F)(F)F)c1 | . | 104 | 88 | 14
47 | Cc1ccc(NS(=O)(=O)c2cnc(N)nc2)c(C)c1 | 104 | 94 | 88 | .
48 | c1ccc(-n2ncc3c(N4CCN(Cc5nc6ccccc6[nH]5)CC4)ncnc32)cc1 | 100 | . | . | -5
49 | CCC(C)NC(=O)c1ccccc1NC(=O)CN1C(=O)c2cccc3cccc1c23 (stereo unspecified) | 100 | 94 | 83 | -84
50 | COC(=O)c1cc(OC(=O)Cc2coc3cc(OC)ccc23)cc(C(=O)OC)c1 | . | 90 | 94 | -16
51 | CCOc1cc(S(=O)(=O)n2ccnc2C(C)C)ccc1Cl | 99 | 102 | 87 | .
52 | Cc1ccc2c(CNC3CCCC3)c(C(=O)O)n(C)c2c1 | 119 | 92 | 92 | .
53 | COc1ccc(-c2cc3nc(C)c(CCC(=O)N4CCc5ccccc54)c(C)n3n2)c(OC)c1 | 100 | 102 | 91 | -9
54 | COc1ccc(C)cc1Nc1nc2cc(Cl)c(Cl)cc2nc1-n1nc(C)cc1C | 106 | 99 | 89 | -9
55 | O=[n+]1cc(-c2ccco2)n([O-])c2c1CCCC2 | . | 99 | 87 | -30
56 | COc1ccc(S(=O)(=O)N2Cc3ccccc3CC2C(=O)N2CCOCC2)cc1OC (stereo unspecified) | 105 | 94 | 101 | 16
57 | CCCc1cc(C(=O)Nc2c(C)nn(Cc3c(Cl)cccc3Cl)c2C)no1 | 106 | 106 | 86 | -16
58 | COc1cccc(NC(=S)N(C)C2CCN(C)CC2)c1 | . | 96 | 91 | -5
59 | CSc1cc(-c2sc(-c3cccs3)nc2C)[nH]n1 | 104 | 52 | 39 | -16
60 | Cc1nc(N(C)C)ncc1C(=O)NCc1ccccc1 | 98 | . | . | -23
61 | Cc1ccc2nc(COC(=O)C(NS(=O)(=O)c3ccc4c(c3)OCCO4)C(C)C)cc(=O)n2c1 (stereo unspecified) | . | 90 | 82 | -33
62 | CCc1ccc(N2C(=O)N(Cc3cccc(OC)c3)C3CS(=O)(=O)CC32)cc1 (stereo unspecified) | 100 | . | . | -15
63 | O=C(CSc1ncnc2c1nnn2Cc1ccc(F)cc1)NC1CCCC1 | 108 | 102 | 97 | -15
64 | CC(C)(C)c1ccc(C2CC(=O)c3cnc(NCc4ccccc4)nc3C2)cc1 (stereo unspecified) | 106 | . | . | 0
65 | COc1ccc(NC(=O)N2CCc3ccccc3C2)cc1 | 101 | 94 | 99 | 3
66 | N/C(=N\NC(=O)Nc1ccccc1)c1ccc(C(F)(F)F)cn1 | 107 | 104 | 99 | -11
67 | O=C(Nc1ccccc1Cl)Nc1ccccc1Cl | . | 108 | 91 | -13
68 | CCOc1ccccc1CNC(=O)c1ccc2c(c1)N(C)CCS2 | 103 | 94 | 93 | .
69 | CC(C)NC(=O)C1CC(c2ccccc2O)=NO1 (stereo unspecified) | 103 | 128 | 88 | -2
70 | COc1cccc(NCc2nc3nc4c(c(=O)n3[nH]2)CCC4)c1 | 112 | . | . | 4
71 | Cn1cnc(S(=O)(=O)N2CCN(c3ccccn3)CC2)c1 | 99 | 92 | 89 | -36
72 | CC(C)c1cc(=O)n2[nH]cnc2n1 | 106 | 101 | 73 | -9

(next part)
item | Molecule | GIV-Gai inh | Sa growth inh | Sa growth inh second temp | HCMV UL50-53 inh
73 | Cc1cc(C)cc(N2C(=O)CSC23C(=O)N(CC(=O)NC2CCCCC2)c2ccccc23)c1 (stereo unspecified) | 108 | 109 | 98 | .
74 | COc1ccccc1-n1c(-c2ccncc2)n[nH]c1=S | 103 | 100 | 79 | .
75 | CC(C)(C)c1ncc(C(=O)O)cn1 | 106 | 86 | 88 | -19
76 | CC(=O)N1CCC2(CC1)C/C(=N\NC(=S)Nc1ccc(C)cc1)c1cc(O)ccc1O2 | 104 | 99 | 83 | -38
77 | CCOC(=O)N1CCN(C(=O)CN(C2CCCCC2)S(=O)(=O)c2ccccc2)CC1 | . | 113 | 87 | -8
78 | CCCNC(=O)CCn1cnc2oc(C)c(C)c2c1=O | 102 | . | . | -35
79 | CCOC(=O)c1cccc(NC(=O)c2ccc3c(c2)nnn3CC)c1 | 107 | 93 | 93 | .
80 | COCCn1ccc2c(OCC(=O)Nc3cccc(C(F)(F)F)c3)cccc2c1=O | 97 | 106 | 90 | .
81 | O=C1C=C(SCC(=O)Nc2ccc(Cl)cc2)SC(c2ccccc2)C1 (stereo unspecified) | 102 | 87 | 91 | 2
82 | Cc1ccc(C2=NN(C(=O)c3ccncc3)C(c3ccccc3F)C2)cc1 (stereo unspecified) | 102 | . | . | -12
83 | CC(=O)Nc1ccc(Cl)cc1C(F)(F)F | 102 | 100 | 101 | -28
84 | CN(C(=O)CSc1n[nH]c(=O)[nH]c1=O)c1ccccc1 | . | 113 | 89 | -16
85 | C/C(=N\OC(=O)c1ccc(Cl)cc1)c1ccc[nH]1 | 107 | 97 | 88 | -15
86 | CN1C(=O)CC(c2cn(Cc3ccccc3)c3ccccc23)C1=O (stereo unspecified) | 162 | 127 | 101 | .
87 | CCN(CC)CC(O)CN=C1NS(=O)(=O)c2ccccc21 (stereo unspecified) | 107&98 | 96 | 81 | -22&-14
88 | Cc1ccc(Cl)cc1-n1c(CCC(=O)O)ccc1-c1cccs1 | 107 | 81 | 58 | -22
89 | COCCNC(=O)c1nn(C)c2c1CSc1ccc(F)cc1-2 | 105 | . | . | -18
90 | Cc1ccc(C)c(NC(=O)CSCc2cnn(-c3ccccc3)c2-n2cccc2)c1 | 103 | 92 | 80 | -21
91 | O=C(O)C(C(=O)/C=C/c1ccccc1)=C1SCCS1 | . | 126 | 86 | -11
92 | CN(C)C(=O)COc1cc(O)c2c(=O)cc(-c3ccccc3)oc2c1 | 101 | . | . | 4
93 | Cc1ccsc1C1C2=C(CC(C)(C)CC2=O)OC2=C1C(=O)CC(C)(C)C2 | 107 | . | . | -32
94 | Cc1ccc(OCCSc2nc(C)c(Cc3ccccc3)c(=O)[nH]2)cc1 | 103 | 111 | 91 | -6
95 | C=CCn1c(SCC(=O)NCCCN2CCOCC2)nc2sc3c(c2c1=O)CCCC3 | 104 | . | . | -17
96 | C/C(=N\NC(=O)CN1C(=O)c2cccc3cccc1c23)C(C)(C)C | . | 77 | 93 | -29
97 | CCOC(=O)CSc1nnc(NCC(=O)OC)c(=O)[nH]1 | 95 | 95 | 99 | -6
98 | COC(=O)c1ccc(Cn2nc(C)c(Br)c2C)o1 | 100 | 113 | 76 | -6
